gsp agonist = activates gsp, the McCune-Albright syndrome mutation; gsp mutant cells, cAMP HTRF, 30 min; control for the full effect not named in the record; Potency, µM (highest dose often 76.9 µM), without a hit: top-dose activation (cAMP increase), actives largely listed as activators; 340,000 compounds, 0.13% hits; active = well fitted activation curve with a large enough effect; inconclusive = small, poorly fitted or top-dose-only effect, or another doubt; inactive = no such curve, though single readings can be large or run the other way; cell line not stated here;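 also: phosphodiesterase inhibitor Ro 20-1724 added with compounds to block cAMP breakdown; potency is read from the fitted curve at half-maximal effect; nearly all actives have a fitted effect of over 60% in size; about a fifth of the inactives were tested at one dose only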
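Cells in DMEM/10% FBS with G418 were pretreated with compounds in DMSO plus […] (300 uM stock) for 30 min at 37C. cAMP was measured by HTRF (cAMP-d2 plus anti-cAMP antibody-K) after 30 min at room temperature.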
gsp antag = antagonists of gsp mutant (McCune-Albright syndrome) | gsp-mutant cells, cAMP HTRF, 30 min; control for the full effect not named in the record | Potency, µM (doses to about 76.9 µM), inactives show at the top dose activity change, negative = inhibition, hits mostly inhibitors | 340,000 compounds, 0.4% hits; active = falling curve of any shape with a large fitted effect; inconclusive = falling curve, mostly with a smaller effect; inactive = flat or rising curve; cell line not stated here;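 also: intracellular cAMP measured with PDE inhibitor Ro 20-1724 present during compound exposure; potency is read from the fitted curve at half-maximal effect; % is scaled to controls: 0 for no effect and ±100 for the full control effect; nearly all actives have a fitted effect of over 65% in size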
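Cells, 2000/well, grown 16–24 h in DMEM 10% FBS with 0.5 mg/ml G418, then compounds plus […] (300 uM addition stock), 30 min at 37C. cAMP read by HTRF (cAMP-d2 and anti-cAMP antibody-K in lysis buffer) after 30 min RT.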
TRPML1 agonist = human mucolipin-1 channel agonism | TRPML1-expressing cells, Ca2+ dye fluorescence, FDSS; host cell line not named in the record; reference of the full effect not given here | activation, % (test concentration not listed) | 410,000 compounds, 0.12% hits; in the data active = activation above about 50%; inconclusive = about 30% to 50%; inactive = below about 30%; also: 0% is about no effect; the text of the record puts the active cut at 80%
Target sequence (Q9GZU1 whole entry, looked up): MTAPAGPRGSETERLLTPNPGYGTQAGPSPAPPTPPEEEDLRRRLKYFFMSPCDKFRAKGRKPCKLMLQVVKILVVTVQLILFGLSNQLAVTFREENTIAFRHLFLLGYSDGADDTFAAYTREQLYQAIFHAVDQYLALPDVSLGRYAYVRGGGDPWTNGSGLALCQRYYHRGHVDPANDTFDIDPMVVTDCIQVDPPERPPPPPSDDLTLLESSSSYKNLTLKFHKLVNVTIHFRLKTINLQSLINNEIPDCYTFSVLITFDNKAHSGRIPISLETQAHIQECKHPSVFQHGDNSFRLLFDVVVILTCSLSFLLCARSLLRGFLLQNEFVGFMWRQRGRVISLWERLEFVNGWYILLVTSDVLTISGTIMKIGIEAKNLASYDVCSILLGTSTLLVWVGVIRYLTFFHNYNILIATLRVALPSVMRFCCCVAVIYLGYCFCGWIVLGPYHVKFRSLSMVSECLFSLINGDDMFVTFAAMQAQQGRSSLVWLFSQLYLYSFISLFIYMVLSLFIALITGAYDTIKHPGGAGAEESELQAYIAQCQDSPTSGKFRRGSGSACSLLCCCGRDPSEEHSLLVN
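Tet-induced TRPML1-DL cells, 1,500 per well, cultured overnight, were loaded with a no-wash Ca2+ dye for 45–90 min. Calcium fluorescence was recorded on the FDSS for 110 s after compound addition, before the EC80 agonist (4 uM 54-4) was added.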
TRPML1 inh = inhibitors of human TRPML1 channel; TRPML1-inducible cells, Ca2+ dye fluorescence, FDSS; active compounds read low; inhibition of EC80 agonist-evoked calcium signal; activity change, negative = inhibition, % (no concentration beside the values); 390,000 compounds, 0.02% hits; in the data active means activity change below about -50%; inconclusive means about -30% to -50%; inactive means above about -30%;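 also: stimulus is agonist 54-4 at its EC80 concentration; % is scaled to controls: 0 for no effect and ±100 for the full control effect; compound concentration not given in the record; the text of the record puts the active cut at -80%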
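Tet-induced TRPML1-DL cells loaded with Ca8 no-wash calcium dye were read kinetically on FDSS. Compound addition was followed by EC80 agonist 54-4 (4 uM final); inhibition was read over 110 s.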
Menin-MLL FL inh = inhibitors of human menin-MLL interaction, wild-type MLL peptide; Fluorescence polarization, fluorescein-MLL peptide displacement from menin; FP activity change, % at 61.4 µM; 290,000 tested, under 10 active; inconclusive = falling polarisation curve, or a change in total fluorescence; inactive = total fluorescence flat and polarisation flat or rising; no compound was filed as active; the % refers to the polarisation; negative = inhibition;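 also: % of control where 0% means no effect; inhibitors lower the polarisation; unlabelled MLL peptide was the positive control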
ClpP mod = qHTS Assay for Activators of ClpP | purified B. subtilis ClpP, FRET peptide cleavage, 20 min | Potency, µM (top dose mostly 57.5 µM), for the others: top-dose activity change, negative = active | ATP-dependent Clp protease proteolytic subunit (Bacillus subtilis (strain 168)), P80244 | 340,000 compounds, 1.9% hits | AID 651965, 2013; active = well fitted falling curve with a large enough effect; inconclusive = small, poorly fitted or top-dose-only effect; inactive = no such curve, though single readings can be large or run the other way; also: potency is read from the fitted curve at half-maximal effect; the source files actives as falling curves though it sought activators and does not explain the sign; nearly all actives have a fitted effect of over 65% in size; many hits overshoot -100%
Target sequence (P80244 whole entry, looked up): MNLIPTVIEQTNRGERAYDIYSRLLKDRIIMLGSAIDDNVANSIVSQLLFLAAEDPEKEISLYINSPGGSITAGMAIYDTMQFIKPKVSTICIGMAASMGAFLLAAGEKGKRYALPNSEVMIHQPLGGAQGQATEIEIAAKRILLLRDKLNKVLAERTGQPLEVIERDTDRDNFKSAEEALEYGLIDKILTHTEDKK
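ClpP 10 microg/mL final, pH 8 Tris/KCl buffer with BSA, glycerol, Tween-20; compound pinned in; FRET-FV substrate; RT 20 min; Ex320/Em430; ΔFRET vs ADEP 5.8 microM, DMSO, no enzyme.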
Numbers without * were called inactive; ? = inconclusive; . = no result given; & = joins results of further samples; [ ] = dose if it differs, or a comment.

structure,TRPML1 agonist,Menin-MLL FL inh,TRPML1 inh,ClpP mod,gsp antag,gsp agonist
CCCNC(=O)Cn1nc(-c2ccccc2OC)ccc1=O,-0.9,.,5,-0.8%,.,-76%[inhibitor]
CN(C)c1ccc(C(=O)OCC(=O)Nc2ccc(N3CCOCC3)cc2)cc1,-0.4,0.3,-3,-4.3%,10%,11%
COc1cccc(/C=N/NC(=O)c2ccc(OCc3cccc(Br)c3)cc2)c1,1.7,2.9,58,-4.3%,-24%,-28%
Cc1ccc(C(=O)Oc2ccc(Br)cc2C(=S)N2CCOCC2)cc1,2.7,1.8,34,.,-8%,-8%[15.4 µM]
O=C(c1ccc(S(=O)(=O)c2ccccc2Cl)c([N+](=O)[O-])c1)N1CCN(Cc2ccccc2)CC1,1.4,-0.1,12,0.9%,-16%,-23%
CCn1c(SCC(=O)NCCc2ccccc2)nnc1-c1ccco1,-2.0,0.1,-23,0.3%,-3%,-23%
OC(Cn1nnc2ccccc21)Cn1c(C(F)(F)F)nc2ccccc21 (stereo unspecified),-0.5,2.8,-13,2.9%,-9%,2%
COCCNC(=O)COc1ccc(Br)cc1Cl,-1.2,1.0,12,0.7%,1%,-16%
Cn1ncc(Cl)c(Oc2ccccc2)c1=O,2.0,0.2,-26,-2.0%,-4%,7%
COC(=O)Cc1c(O)ccn(Cc2cccc3ccccc23)c1=O,-0.4,-0.4,1,0.3%,-2%,22%
CC(C)CN(C(=O)c1ccco1)C1CCS(=O)(=O)C1 (stereo unspecified),0.1,.,-11,-0.2%,-1%,11%[15.4 µM]
CN(C)c1ccnc(NCc2ccccc2)c1C#N,-0.1,1.0,4,-4.4%,12%,-9%
CCCc1ncc(C(=O)c2ccc(OC)cc2)n1C,-0.4,0.5,3,-1.0%,-8%,13%
CC(C(=O)N1CC2(C)CC1CC(C)(C)C2)N1C(=O)c2ccccc2C1=O (stereo unspecified),-0.2,0.7,21,-2.4%,6%,0%
CC(=O)Nc1ccc(NC(=O)CSc2nnc(N)n2-c2ccccc2)cc1,0.5,.,-1,.,4%,-1%
CCN(CC)C(=O)C1CCCN(C(=O)c2oc3ccc(C)cc3c2C)C1 (stereo unspecified),-0.5,.,-22,-0.5%,-8%,-43%[inhibitor]
CCSc1nnc2c(n1)OC(c1ccc(OC)c(OC)c1)N(C(C)=O)c1ccccc1-2 (stereo unspecified),0.1,.,4,0.8%,.,.
CCOC(=O)c1c(NC(=O)Cn2nc(C(F)F)cc2C(F)F)sc(C)c1C,0.4,9.5,-5,-9.4%,-18%,4%
CCCc1c(NC(=O)Nc2ccc(F)cc2)cnn1-c1ccccc1,0.6,-0.2,15,2.1%,-8%,?
CC(C)NC(=O)CSc1nnc(-c2ccc(F)cc2)c2ccccc12,5.8,1.7,10,-1.2%,-15%,26%
COC(=O)CN1C(=O)CSc2ccc(S(=O)(=O)Nc3ccc(C)c(Cl)c3)cc21,-0.7,.,7,2.0%,.,.
COc1cccc(CN(C)C(=O)C2CCC(=O)N(Cc3cccc(F)c3)C2)c1 (stereo unspecified),-0.4,.,-7,-0.9%,1%,-16%
Cc1cccc(NC(=O)c2cccc(NS(=O)(=O)c3ccc(Cl)cc3)c2)c1,0.5,5.9,9,-1.8%,-18%,4%
Cc1cn(CCOc2ccc(Cl)cc2)c(=O)[nH]c1=O,0.3,8.9,0,.,1%,5%[15.4 µM]
CCN1C(=S)N[C@@H](c2cccs2)C(C(=O)OC)=C1C,0.8,-2.1&4.8,8,-2.2%,10%,5%
OC(CNCc1ccco1)Cn1c2ccccc2c2ccccc21 (stereo unspecified),0.2,-0.4,11,-17%,15%,1%
Cc1ncc(COCc2ccccc2)c(CO)c1OCc1ccccc1,0.3,.,16,-0.7%,0%,10%
COc1cc(OC)c(-c2nc3cnccc3n2C)cc1OC,0.3,-1.0,-11,-6.2%,5%,13%
CC(NC(=O)C(c1ccccc1)c1ccccc1)C(=O)O (stereo unspecified),-0.3,5.9,-4,0.7%,0%,-34%[inhibitor]
COc1ccccc1CNC(=O)CSc1ccc(Br)cc1,1.2,3.9,4,1.1%,?,-55%[inhibitor]
COc1ccc(COC(=O)C2CCN(S(=O)(=O)c3ccc(F)cc3)CC2)cc1,3.2,.,24,.,-3%,-19%[15.4 µM]
Cc1ccc(S(=O)(=O)Nc2nc3ccccc3nc2NCC2CCCO2)cc1 (stereo unspecified),-1.0,-1.9,-13,.,-17%,14%[15.4 µM]
Cc1cccc(CC(=O)NCCc2sc3nc(-c4ccc(F)cc4)nn3c2C)c1,5.3,.,-4,-1.2%,.,.
CCOc1cc(CNCc2ccc3c(c2)OCO3)ccc1OC,-0.4,-0.4,1,-0.5%,-16%,-12%
COC(=O)[C@@]1(Cc2ccccc2)[C@H]2C(=O)N(C)C(=O)[C@H]2[C@H]2CN(C)C(=NCc3ccccc3)N21,0.0,.,-3,0.2%,11%,.
CCN(CC)CCCNC(=O)CN1C(=O)CSc2ccc(S(=O)(=O)N3CCOCC3)cc21,0.2,0.7,-16,0.5%,5%,-39%
CC(=O)OCc1c(-c2ccccc2)c2cc([N+](=O)[O-])ccc2n1C,4.1,-11,35,.,-13%,15%
Cc1ccc2nc(-c3ccc(NC(=S)NCCC(C)C)cc3)sc2c1,-0.6,.,16,4.9%,-1%,9%
COc1ccc(-c2noc(CSc3nnc(Cc4ccccc4)n3-c3ccc(F)cc3)n2)cc1,1.2,.,-21,-0.2%,.,.
CC1(c2ccc(OC(F)F)cc2)NC(=O)N(CC(=O)Nc2cccnc2Cl)C1=O (stereo unspecified),15,.,-8,-1.0%,19%,4%
COC(CNC(=O)c1cc(Sc2nnc(C)s2)nc2ccccc12)OC,0.0,-0.6,6,-6.4%,6%,-22%
CCN1C(c2ccc(F)cc2)=CS/C1=C(\C#N)c1nnc2n1-c1ccccc1SC2,1.2,0.9,5,0.2%,-16%,-2%
NC(=O)C1(N2CCCCC2)CCN(C2CC(=O)NC2=O)CC1 (stereo unspecified),4.9,-1.3,12,-1.0%,-6%,-6%
CNc1nc2c(Cl)cc(Cl)cc2s1,2.6,1.1,-13,0.9%,-7%,-35%
Cc1cc(C(=O)OCC(=O)NC2CCCCC2)c(C)o1,-0.6,0.7,13,0.6%,3%,23%
COCCOC1CCN(C(=O)C2CCC(=O)N(Cc3cccc(F)c3)C2)CC1 (stereo unspecified),0.8,0.3,-2,-2.8%,11%,-56%
CCOC(=O)c1ccc(NC(=O)CSc2ccc(-c3sc(C)nc3C)nn2)cc1,0.2,.,-7,-1.1%,.,.
COc1ccccc1Nc1nc(N)nc(-c2cc3ccccc3o2)n1,1.4,3.6,-8,42%,-23%,-27%
COc1ccc(Cl)cc1NC(=O)CN1C(=O)CCS(=O)(=O)c2ccccc21,-1.5,1.4,4,-0.4%,-2%,-34%[inhibitor]
COc1ccccc1CNC(=O)C1CCCN(S(=O)(=O)c2ccc3c(c2)oc(=O)n3C)C1 (stereo unspecified),-0.1,.,31,-2.0%,.,.

Next part
structure,TRPML1 agonist,Menin-MLL FL inh,TRPML1 inh,ClpP mod,gsp antag,gsp agonist
CC1CCN(Cc2nc(Cl)c3c4c(sc3n2)CCC4)CC1,0.4,-1.3,-15,0.7%,-1%,13%
NCCCCCc1cn([C@@H](CCC(=O)O)C(=O)NCCCCCCCCCCC(=O)N2CCNCC2)nn1,0.3,.,-12,-0.1%,6%,4%
CCCCOC(=O)c1ccc(NC(=O)c2nn(C)cc2Br)cc1,3.9,2.6,-16,-11%,?,0%
CCc1ccccc1NC(=O)CN(c1ccccc1)S(=O)(=O)c1ccsc1C(=O)OC,4.1,.,12,-2.4%,.,.
COc1ccc(/C=C2\SC(=S)N(CC(=O)Nc3nnc(C)s3)C2=O)cc1,0.7,13,24,-1.5%,4%,?
Cc1n[nH]c(=S)n1-c1ccccc1,0.5,0.1,17,.,12%,6%
CCOC(=O)C1(Cc2cccc(Cl)c2)CCCN(C(=O)CN2C(=O)CSC2=O)C1 (stereo unspecified),0.3,1.8,-28,-2.0%,-8%,-6%
CCS(=O)(=O)c1cccc(C(=O)Nc2ccc(-c3nc4ccccc4s3)c(O)c2)c1,-0.5,.,1,-1.4%,.,.
O=C(Cn1ncn2nc(-c3ccccc3)cc2c1=O)NCc1ccccn1,-0.4,.,3,-2.1%,2%,0%
COCCNC(=O)[C@@H]1CSC2c3ccccc3C(=O)N21 (stereo partly specified),-0.2,6.6,2,32µM*,0%,6%[15.4 µM]
COc1ccc(NC(=O)CN(C)C(=O)c2cccc(Oc3ccccc3)c2)cc1,0.4,.,11,-2.5%,-4%,29%
CC(C)(C)c1ccc(C(=O)NCCN2CCOCC2)cc1,0.4,.,19,-0.7%,6%,27%
CCCCCCCCOc1ccc(C2CC(=O)NC2=O)cc1 (stereo unspecified),-0.4,-1.3,16,-0.4%,-2%,-84%[inhibitor]
O=C(N/C(=C\c1cccc([N+](=O)[O-])c1)C(=O)N1CCCCC1)c1cccs1,1.1,-0.1,3,-1.5%,-5%,-2%
COc1ccccc1CNC(=O)c1nn(-c2ccc(C)cc2)c(=O)c2c1c1ccccc1n2C,1.6&0.9,-1.1,6&4,14µM*,-2%,15%
Cc1cc(Br)cc(C)c1NC(=O)c1sc2ncn(Cc3cccc(F)c3)c(=O)c2c1C,4.7,.,26,-10%,.,.
CCN(CC(=O)Nc1c(F)cccc1F)C(=O)c1cccnc1Sc1ccccc1,1.3,.,3,.,-9%,20%[15.4 µM]
